INS promoter inh = TRM-6 insulin promoter activity inhibition; inhibition, % at 2 µM; TRM-6 cells (human fetal islet line), insulin promoter-eGFP reporter, imaging; reporter expression induced with tamoxifen; actives 0.9% (n = 130,000);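 active = inhibition above the mean plus 3 SD, with well images judged a real hit on visual review, cut at about 60% in these data, passing the limit was not always enough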
PKD1 kinase inh = PKD1 (human) kinase inhibition. Q15139. PKD1 kinase fluorescence polarization assay. inhibition, %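 (about 10 µM by stock and volumes)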. actives 0.056% (n = 200,000);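 active = inhibition of 50% or more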;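 note: controls were vehicle for no effect and a reference inhibitor for full effect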
Target sequence (Q15139 whole entry, looked up): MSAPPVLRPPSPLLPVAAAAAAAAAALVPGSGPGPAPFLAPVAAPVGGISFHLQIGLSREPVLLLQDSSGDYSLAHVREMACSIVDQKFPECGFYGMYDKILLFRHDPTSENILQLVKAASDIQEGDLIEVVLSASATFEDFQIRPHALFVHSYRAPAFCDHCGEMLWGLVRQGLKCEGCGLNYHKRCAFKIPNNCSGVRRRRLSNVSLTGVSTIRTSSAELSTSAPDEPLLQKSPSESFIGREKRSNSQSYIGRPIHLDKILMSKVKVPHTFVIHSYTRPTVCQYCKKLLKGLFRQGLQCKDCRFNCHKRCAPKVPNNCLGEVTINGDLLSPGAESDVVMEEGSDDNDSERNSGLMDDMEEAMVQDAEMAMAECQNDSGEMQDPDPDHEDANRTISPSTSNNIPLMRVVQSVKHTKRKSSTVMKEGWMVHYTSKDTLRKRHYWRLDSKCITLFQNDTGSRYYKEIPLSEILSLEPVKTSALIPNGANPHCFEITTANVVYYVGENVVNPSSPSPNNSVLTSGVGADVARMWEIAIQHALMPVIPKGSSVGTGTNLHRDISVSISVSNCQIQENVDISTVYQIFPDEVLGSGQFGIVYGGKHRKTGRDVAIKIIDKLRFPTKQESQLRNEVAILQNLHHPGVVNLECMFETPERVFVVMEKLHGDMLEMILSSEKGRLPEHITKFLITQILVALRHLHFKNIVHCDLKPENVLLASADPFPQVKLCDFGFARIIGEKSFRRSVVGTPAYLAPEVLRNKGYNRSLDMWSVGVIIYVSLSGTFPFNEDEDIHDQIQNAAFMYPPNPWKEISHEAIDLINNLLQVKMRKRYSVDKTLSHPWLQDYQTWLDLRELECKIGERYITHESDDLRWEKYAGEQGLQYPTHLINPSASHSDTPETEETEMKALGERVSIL
RGS16-Gao HTS = modulates binding between human RGS16 and Galphao. O15492+P09471. bead-based flow cytometry RGS16-Galphao binding, fluorescence; actives lie on both sides. binding response (% of control), % at 10 µM. actives 0.38% (n = 220,000). AID 1441;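 active = below 25% or above 175%, edge rows of some plates excepted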;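 note: Galphao activated by GDP with aluminum fluoride before binding; 100% = wells without compound and 0% = beads without RGS; some results beyond the cut were filed as inactive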
GALR2 ag = GALR2 (human) receptor agonism; O43603; AID 803; actives 0.48% (n = 140,000); GALR2-expressing cells, agonist activation read-out; activation, %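 (tested at 5 µM)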;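 active = above mean plus 3 SD of all compounds, about 5% in these data, not always enough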;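 note: 0% = vehicle buffer wells and 100% = reference agonist at full effect; tested in CHO reporter cells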
HSV replic up = increases HSV replication in cells; HSV replication augmentation in cells, fold increase; maximum fold increase; actives 0.005% (n = 220,000); AID 1956;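 active = peak rise of 1.5-fold or more in the series; tested in PC3 cells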;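 note: first round at 10 µM; read as green reporter fluorescence; hits show the peak of a series up to 25 µM; 1 = signal of infected wells without compound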
INS promoter inh cell count = also measured in INS promoter inh; calls as there; normalized cell count, %; measured here: cell count, toxicity; reference of the scale not given here;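 cells exposed to compound for 48 h; stained nuclei by imaging scaled within each plate; lower means fewer cells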
HSV replic up primary fold = further read-out of HSV replic up, marked with its call; fold increase; compound at 10 µM; measured here: primary screen fold increase 10 uM; tested in PC3 cells;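 GFP signal in the first replicate; 1 = infected wells without compound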
* = called active by the depositor.

How did O=C(NCCc1ccccc1)C1c2ccccc2C(=O)N1C1CC1 (centres undefined) do in these assays?
PKD1 kinase inh: -4.8; RGS16-Gao HTS: 101.6; GALR2 ag: -1.4; HSV replic up: inactive; HSV replic up primary fold: 0.8

What do the screens show for `Cc1ncc(CO)c(/C=N/N=C/c2ccccc2O)c1O`?
PKD1 kinase inh: 4.3; RGS16-Gao HTS: 104.0; GALR2 ag: 0.7; HSV replic up: inactive; HSV replic up primary fold: 0.94

What do the screens show for `O=C(CCc1ccccc1)OCC(=O)c1ccc([N+](=O)[O-])cc1`?
INS promoter inh: 11.1; PKD1 kinase inh: -7.4; RGS16-Gao HTS: 98.2; HSV replic up: inactive; INS promoter inh cell count: 139.5; HSV replic up primary fold: 0.89

Results for COc1ccc(C(=O)N2CCOC2CNC(=O)C(=O)NCc2ccco2)cc1 (centres undefined) ?
INS promoter inh: 0.0; PKD1 kinase inh: 0.7; RGS16-Gao HTS: 101.3; HSV replic up: inactive; INS promoter inh cell count: 100.4; HSV replic up primary fold: 0.95

Results for COc1cccc(CN2CCN(C(=O)c3cccs3)CC2)c1OC ?
INS promoter inh: 0.0; PKD1 kinase inh: -12.7; RGS16-Gao HTS: 101.5; GALR2 ag: -1.5; HSV replic up: inactive; INS promoter inh cell count: 111.8; HSV replic up primary fold: 0.88

What do the screens show for `CCOC(=O)C1=C(C)OC(N)=C(C(=O)OCC)C1c1ccncc1` (centres undefined)?
INS promoter inh: -3.9; PKD1 kinase inh: -8.9; RGS16-Gao HTS: 111.0; GALR2 ag: -0.4; HSV replic up: inactive; INS promoter inh cell count: 43.9; HSV replic up primary fold: 0.77

What do the screens show for `CC(C)(C)CN1C(=O)C(=O)NC[C@H]1Cc1ccc(O)cc1`?
RGS16-Gao HTS: 106.5; HSV replic up: inactive; HSV replic up primary fold: 0.965

Results for CCc1nc2nc(C)cc(Nc3cccc(C(F)(F)F)c3)n2n1 ?
INS promoter inh: -25.8; PKD1 kinase inh: -22.0; RGS16-Gao HTS: 101.5; GALR2 ag: -1.4; HSV replic up: inactive; INS promoter inh cell count: 136.1; HSV replic up primary fold: 0.94

Results for Nc1cc(=O)[nH]c(SCC(=O)Nc2ccc([N+](=O)[O-])cc2)n1 ?
RGS16-Gao HTS: 105.8; HSV replic up: inactive; HSV replic up primary fold: 1.19

Results for O=C(CN1CCCCC1)N1CCN(C(=O)CN2CCCCC2)CC1 ?
PKD1 kinase inh: -3.6; RGS16-Gao HTS: 89.2; GALR2 ag: -1.8; HSV replic up: inactive; HSV replic up primary fold: 1.28

How did COc1ccc(-c2cc(C(F)(F)F)n3nc(C(=O)NCc4ccco4)cc3n2)cc1OC do in these assays?
INS promoter inh: 12.7; PKD1 kinase inh: -4.1; RGS16-Gao HTS: 100.2; GALR2 ag: 0.2; HSV replic up: inactive; INS promoter inh cell count: 122.9; HSV replic up primary fold: 1.04

Results for CN(C)S(=O)(=O)Nc1ccc(NS(=O)(=O)N(C)C)c(S(=O)(=O)c2ccccc2)c1 ?
PKD1 kinase inh: 12.1; RGS16-Gao HTS: 93.9; GALR2 ag: -2.8; HSV replic up: inactive; HSV replic up primary fold: 0.89

How did COC(=O)c1ccc(/C=C(\C#N)C(=O)NC(C)c2ccccc2)cc1 (centres undefined) do in these assays?
PKD1 kinase inh: -0.7; RGS16-Gao HTS: 102.2; GALR2 ag: -1.8; HSV replic up: inactive; HSV replic up primary fold: 1.17

How did Oc1c(Cl)cc(Cl)cc1C=Nc1ccc2c(c1)OCCO2 do in these assays?
INS promoter inh: 33.3; PKD1 kinase inh: -6.9; RGS16-Gao HTS: 74.0; GALR2 ag: -3.3; HSV replic up: inactive; INS promoter inh cell count: 87.4; HSV replic up primary fold: 1.16

What do the screens show for `NS(=O)(=O)c1ccc(N/C=C\C(=O)c2ccncc2)cc1`?
PKD1 kinase inh: -2.1; RGS16-Gao HTS: 105.0; HSV replic up: inactive; HSV replic up primary fold: 0.8

Structures above with sulfur (four):
Results for COc1cccc(CN2CCN(C(=O)c3cccs3)CC2)c1OC ?
INS promoter inh: 0.0; PKD1 kinase inh: -12.7; RGS16-Gao HTS: 101.5; GALR2 ag: -1.5; HSV replic up: inactive; INS promoter inh cell count: 111.8; HSV replic up primary fold: 0.88

Results for Nc1cc(=O)[nH]c(SCC(=O)Nc2ccc([N+](=O)[O-])cc2)n1 ?
RGS16-Gao HTS: 105.8; HSV replic up: inactive; HSV replic up primary fold: 1.19

Results for CN(C)S(=O)(=O)Nc1ccc(NS(=O)(=O)N(C)C)c(S(=O)(=O)c2ccccc2)c1 ?
PKD1 kinase inh: 12.1; RGS16-Gao HTS: 93.9; GALR2 ag: -2.8; HSV replic up: inactive; HSV replic up primary fold: 0.89

What do the screens show for `NS(=O)(=O)c1ccc(N/C=C\C(=O)c2ccncc2)cc1`?
PKD1 kinase inh: -2.1; RGS16-Gao HTS: 105.0; HSV replic up: inactive; HSV replic up primary fold: 0.8

Carrying on:
Results for Cc1nc2cc(C)c(C)cc2s1 ?
PKD1 kinase inh: -0.4; RGS16-Gao HTS: 100.1; HSV replic up: inactive; HSV replic up primary fold: 0.94

How did COc1ccccc1NC(=O)COC(=O)c1c[nH]c(=O)[nH]c1=O do in these assays?
RGS16-Gao HTS: 105.4; HSV replic up: inactive; HSV replic up primary fold: 0.95

Results for O=C(NNC(=O)c1cccc2ccccc12)c1ccc2c(c1)OCO2 ?
RGS16-Gao HTS: 96.0; HSV replic up: inactive; HSV replic up primary fold: 0.83

How did CCCn1cnc2cc(NCc3cccc(OC)c3O)ccc21 do in these assays?
PKD1 kinase inh: -8.4; RGS16-Gao HTS: 100.5; GALR2 ag: -0.3; HSV replic up: inactive; HSV replic up primary fold: 1.19

Results for COC(=O)c1sccc1NC(=O)CSCCc1ccncc1 ?
INS promoter inh: -50.0; PKD1 kinase inh: -5.1; RGS16-Gao HTS: 110.5; HSV replic up: inactive; INS promoter inh cell count: 35.1; HSV replic up primary fold: 0.88

What do the screens show for `COc1cc(/C=C2/C(=N)N3C=CSC3=NC2=O)ccc1OCCCOc1c(C)cccc1C`?
INS promoter inh: 0.0; PKD1 kinase inh: -4.5; RGS16-Gao HTS: 95.7; GALR2 ag: -2.0; HSV replic up: inactive; INS promoter inh cell count: 70.6; HSV replic up primary fold: 1.08

What do the screens show for `O=C(C1=C[C@H](c2ccccc2)C[C@H](OCCCCO)O1)N1CCOCC1`?
PKD1 kinase inh: -2.6; RGS16-Gao HTS: 101.7; HSV replic up: inactive; HSV replic up primary fold: 0.98

Results for CC12CCC(C(=O)NCc3ccco3)(OC1=O)C2(C)C (centres undefined) ?
PKD1 kinase inh: -0.3; RGS16-Gao HTS: 102.7; GALR2 ag: -1.1; HSV replic up: inactive; HSV replic up primary fold: 0.96

What do the screens show for `CC(C)c1c(O)nc(SCC(=O)Nc2ccc3c(c2)CCC3)[nH]c1=O`?
PKD1 kinase inh: 1.0; RGS16-Gao HTS: 106.9; GALR2 ag: -1.1; HSV replic up: inactive; HSV replic up primary fold: 0.87

Results for COc1ccc(NC(=O)C2Cc3ccccc3C(=O)O2)cc1 (centres undefined) ?
RGS16-Gao HTS: 98.6; HSV replic up: inactive; HSV replic up primary fold: 0.9

What do the screens show for `CC(C)(C)C(=O)Nc1nc2c(s1)CN(Cc1ccccc1)CC2`?
PKD1 kinase inh: -2.3; RGS16-Gao HTS: 116.8; HSV replic up: inactive; HSV replic up primary fold: 1.09

How did O=S(=O)(c1cc(C(F)(F)F)ccc1Cl)N1CCCCCC1 do in these assays?
INS promoter inh: 23.1; PKD1 kinase inh: 2.9; RGS16-Gao HTS: 101.5; GALR2 ag: -1.1; HSV replic up: inactive; INS promoter inh cell count: 70.8; HSV replic up primary fold: 0.95

How did CCCCC(=O)Nc1ccc(NC(=O)C2CC2)cn1 do in these assays?
INS promoter inh: 18.2; PKD1 kinase inh: -10.7; RGS16-Gao HTS: 98.8; GALR2 ag: 0.3; HSV replic up: inactive; INS promoter inh cell count: 113.3; HSV replic up primary fold: 0.943

How did COc1ccc(C(=O)On2c(-c3ccc(Br)cc3)nc3ccccc3c2=O)cc1 do in these assays?
INS promoter inh: -6.2; PKD1 kinase inh: 16.7; RGS16-Gao HTS: 107.8; GALR2 ag: 1.5; HSV replic up: inactive; INS promoter inh cell count: 118.7; HSV replic up primary fold: 0.87

Results for O=C1C(=O)N(Cc2cccnc2)C(c2ccccn2)/C1=C(/O)c1ccccc1 (centres undefined) ?
PKD1 kinase inh: 0.8; RGS16-Gao HTS: 105.3; GALR2 ag: -2.2; HSV replic up: inactive; HSV replic up primary fold: 0.84

How did CCc1c(C)c2ccc(OCC(=O)OC(C)C)c(C)c2oc1=O do in these assays?
INS promoter inh: -32.4; PKD1 kinase inh: -3.2; RGS16-Gao HTS: 97.0; GALR2 ag: -1.7; HSV replic up: inactive; INS promoter inh cell count: 143.1; HSV replic up primary fold: 0.92

What do the screens show for `CC(C)Oc1ccccc1/C=N/NC(=O)c1ccccc1Cl`?
RGS16-Gao HTS: 92.0; HSV replic up: inactive; HSV replic up primary fold: 0.92

Results for Cc1cc(N/N=C/c2ccccc2O)nc(N2CCOCC2)n1 ?
RGS16-Gao HTS: 100.3; HSV replic up: inactive; HSV replic up primary fold: 0.96

What do the screens show for `C=CC[n+]1c(C)csc1Nc1cccc(Br)c1`?
PKD1 kinase inh: -3.2; RGS16-Gao HTS: 101.0; HSV replic up: inactive; HSV replic up primary fold: 1.06

Results for COc1cc(C(=O)NC(=S)Nc2cccc3nc(C)ccc23)cc(OC)c1OC ?
RGS16-Gao HTS: 96.0; HSV replic up: inactive; HSV replic up primary fold: 0.92

How did N#CC1=C(N)N(c2ccccc2)C(c2cccc([N+](=O)[O-])c2)C1(C#N)C#N (centres undefined) do in these assays?
INS promoter inh: -5.4; PKD1 kinase inh: -4.5; RGS16-Gao HTS: 71.8; GALR2 ag: 1.3; HSV replic up: inactive; INS promoter inh cell count: 121.6; HSV replic up primary fold: 0.83

How did Cc1cc(C)c2c(CN3CCOCC3)cc(=O)oc2c1C do in these assays?
RGS16-Gao HTS: 101.8; HSV replic up: inactive; HSV replic up primary fold: 1.12

What do the screens show for `C[C@@H](O)C1NC(=O)[C@H](CCCCN)NC(=O)c2cc([N+](=O)[O-])cc(I)c2OCC[C@@H](C(N)=O)NC1=O` (some centres undefined)?
INS promoter inh: -9.1; PKD1 kinase inh: -5.1; RGS16-Gao HTS: 107.5; GALR2 ag: -2.3; HSV replic up: inactive; INS promoter inh cell count: 80.1; HSV replic up primary fold: 0.77

What do the screens show for `COc1ccccc1C(CC(=O)Nc1ccc(Cl)cc1)c1ccc(OC(C)C)cc1` (centres undefined)?
INS promoter inh: -40.7; PKD1 kinase inh: -10.2; RGS16-Gao HTS: 97.0; GALR2 ag: -0.5; HSV replic up: inactive; INS promoter inh cell count: 98.6; HSV replic up primary fold: 0.89

What do the screens show for `Cc1ccccc1OCCCCn1cnc2ccccc21`?
INS promoter inh: -29.6; PKD1 kinase inh: -1.2; RGS16-Gao HTS: 103.0; GALR2 ag: -0.8; HSV replic up: inactive; INS promoter inh cell count: 133.3; HSV replic up primary fold: 0.66

Results for O=C(NCC(=O)N(c1ccc2c(c1)OCO2)C(C(=O)NC1CCCC1)c1cccs1)c1ccco1 (centres undefined) ?
INS promoter inh: -48.4; PKD1 kinase inh: -6.6; RGS16-Gao HTS: 111.2; GALR2 ag: -3.1; HSV replic up: inactive; INS promoter inh cell count: 93.3; HSV replic up primary fold: 1.02

What do the screens show for `O=C(CN1C(=O)NC2(CCOc3ccccc32)C1=O)Nc1cccc(Cl)c1` (centres undefined)?
INS promoter inh: 27.3; PKD1 kinase inh: -6.4; RGS16-Gao HTS: 96.5; HSV replic up: inactive; INS promoter inh cell count: 97.3; HSV replic up primary fold: 1.09

What do the screens show for `CCc1ccc(-c2nnn(CCC#N)n2)cc1`?
PKD1 kinase inh: -5.0; RGS16-Gao HTS: 102.2; HSV replic up: inactive; HSV replic up primary fold: 0.93

Results for Cc1ccc(NC(=O)CSCc2ccco2)cc1 ?
INS promoter inh: 42.9; PKD1 kinase inh: 4.7; RGS16-Gao HTS: 99.8; HSV replic up: inactive; INS promoter inh cell count: 116.8; HSV replic up primary fold: 1.01

Results for O=C(OCc1ccccc1)C1=NNC2C(=O)N(c3ccccc3)C(=O)C12 (centres undefined) ?
PKD1 kinase inh: 2.6; RGS16-Gao HTS: 103.6; GALR2 ag: -1.8

What do the screens show for `COc1ccc(N=c2sc3ccccc3n2C)cc1`?
INS promoter inh: -13.0; PKD1 kinase inh: -4.2; RGS16-Gao HTS: 100.1; GALR2 ag: -2.7; INS promoter inh cell count: 116.0

How did O=C(N/C(=C\c1cccs1)C(=O)N1CCOCC1)c1cccs1 do in these assays?
INS promoter inh: 77.8*; PKD1 kinase inh: -4.0; RGS16-Gao HTS: 93.6; HSV replic up: inactive; INS promoter inh cell count: 87.4*; HSV replic up primary fold: 0.97
